PrP 5UTR inh – suppresses PrP 5' UTR mRNA reporter expression | cell-based PrP 5' UTR mRNA reporter, plate reader | inhibition, % (concentration not given with the values) | 0.35% of 340,000 active;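 active = every replicate at 50% or more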;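 also: 0 = median of the neutral control wells; tested in H4 reporter cells; numbers are from one replicate; inactives centre near -14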
ugtP null kill – kills S. aureus RN4220 lacking UgtP | S. aureus RN4220 ugtP deletion, OD600 growth, 16 h; some inactives read as strong as hits | growth inhibition, % (concentration not given with the values) | 0.54% of 330,000 active | AID 1259309;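 active = z-score under -3 and OD600 up to 0.15 on both plates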;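 also: plate controls were untreated wells for no effect and antibiotic for full effect; wells of about 80 µL received 100 nL stock; the first replicate is given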
BJeLR viability – BJeLR cell viability loss; BJeLR (HRASV12) viability, CellTiter-Glo ATP luminescence, 48 h; reference of the scale not given here; inhibition, % (concentration not given with the values); 0.17% of 300,000 active;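 active = replicate mean above 50%; inconclusive = above 50% but judged a plate artefact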;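 also: 50 nL library stock added to about 25 µL; numbers are from one replicate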
Mtb hypoxia rep – Mtb hypoxia fluorescent reporter inhibition | M. tuberculosis hypoxia-regulated fluorescent reporter, fluorescence | fluorescence inhibition, % (concentration not given with the values) | 0.1% of 300,000 active;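 active = 35 to 45% if threefold the growth effect, above 45% if 1.5-fold the growth effect; inactive = the rest, general growth blockers included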;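 also: wells of about 50 µL received 100 nL stock; 0% = vehicle wells and 100% = reference inhibitor wells; whole bacteria with a GFP reporter of the hypoxia response; strong numbers were not always called active; many hits fall short of the cut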
Bead autofluor – flagged as autofluorescent in microsphere protease counterscreen. compound autofluorescence counterscreen, microsphere flow cytometry; active compounds read high. fluorescence intensity (test concentration not listed). 3.1% of 360,000 active. AID 624483;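 active = at least 3 SD above the mean of all compounds, about 16000 in these data; inconclusive = too few beads counted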;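 also: 100 nL of 1 mM stock went into each well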
RN4220 kill – kills Staphylococcus aureus RN4220. AID 1259311. inhibition, % (no concentration beside the values). 0.33% of 330,000 active. S. aureus RN4220 growth, OD600, 16 h;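 active = z-score of -3 or lower and OD600 up to 0.18 on both plates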;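 also: plate controls were untreated cells for no effect and reference antibiotic for full effect; stock transfer was 100 nL into about 80 µL; one replicate is shown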
Mtb hypoxia rep growth – second read-out of Mtb hypoxia rep, no call of its own (marks repeat the call); growth inhibition, %; measured here: M. tuberculosis growth (absorbance);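 0% = vehicle and 100% = reference antibiotic; read after six days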
An asterisk follows results filed as active; ? = inconclusive; · = no result given; & = joins results of further samples; ! = a repeat was not active.

SMILES	PrP 5UTR inh	ugtP null kill	BJeLR viability	Mtb hypoxia rep	Mtb hypoxia rep growth	Bead autofluor	RN4220 kill
O=C(NCCc1ccccc1F)C1CC(=O)N(c2ccccc2)C1 (stereo not given)	-11	4	4	10	11	6688	1.7
Cn1c(SCC#N)nnc1-c1cnccn1	-8	2	-10	17	6	3678	1.7
COc1ccc(C2CC(C(F)(F)F)n3nc(C(=O)NCc4c(C)nn(C)c4C)c(Cl)c3N2)cc1 (stereo not given)	-14	5	-4	5	8	6610	1.9
COC(=O)C1=C(C)N(c2ccc(C)c(C)c2)/C(=C/c2cccs2)C1=O	-38	-13	8	3	7	11368	21
CC1CC(C)CN(C(=O)Cn2c(-c3nonc3N)nc3ccccc32)C1 (stereo not given)	2	1	-5	4	7	4021	-0.3
CCNC(=O)NC(=O)C(C)OC(=O)c1ccc(-n2nc(SC)sc2=S)cc1 (stereo not given)	1	12	3	7	-1	2433	5.1
CCOC(=O)c1c(CN2CCCCC2)oc2ccc(OC)cc12	-31&-3	0&1	-6&8	1&-4	1&10	19520*!	0.2&4.4
CCn1c(=O)c(C(=O)Nc2ccc(C)cc2C)c(O)c2ccccc21	-11	12	5	12	5	3788	-2.4
Cc1cc(C)nc(N(C#N)S(=O)(=O)c2ccccc2)n1	-19	-3	6	·	·	4964	-1.1
N#Cc1c(NC(=O)C2CCCO2)sc2c1CCCCC2 (stereo not given)	-76	9	7	1	4	4078	4.7
CC(OC(=O)c1cnc(Cl)c(Cl)c1)C(=O)NCc1ccccc1 (stereo not given)	-9	7	·	24	48	2938	6.2
CCCCC(=O)NC(c1ccccc1Cl)c1ccc2cccnc2c1O (stereo not given)	2	·	6	·	·	4714	·
Cc1cccc(/C=C(\C#N)C(=O)Nc2ccccn2)c1	-1	·	-8	·	·	5296	·
CCc1cccc(C)c1NC(=O)COC(=O)c1c2c(nc3ccccc13)/C(=C\c1cccs1)CCC2	4	-3	7	-2	5	2338	20
O=C(Nc1ccc(S(=O)(=O)Nc2cnc3ccccc3n2)cc1)c1ccc(Cl)c([N+](=O)[O-])c1	-13	0	-7	-3	0	3762	3.0

In the list so far, three contain a thiophene ring, fused or not.
SMILES	PrP 5UTR inh	ugtP null kill	BJeLR viability	Mtb hypoxia rep	Mtb hypoxia rep growth	Bead autofluor	RN4220 kill
COC(=O)C1=C(C)N(c2ccc(C)c(C)c2)/C(=C/c2cccs2)C1=O	-38	-13	8	3	7	11368	21
N#Cc1c(NC(=O)C2CCCO2)sc2c1CCCCC2 (stereo not given)	-76	9	7	1	4	4078	4.7
CCc1cccc(C)c1NC(=O)COC(=O)c1c2c(nc3ccccc13)/C(=C\c1cccs1)CCC2	4	-3	7	-2	5	2338	20

Later entries.
SMILES	PrP 5UTR inh	ugtP null kill	BJeLR viability	Mtb hypoxia rep	Mtb hypoxia rep growth	Bead autofluor	RN4220 kill
COc1ccc(S(=O)(=O)N2CCN(C)CC2)cc1C(=O)N1CCCCC1	-6	-2	7	3	6	5419	1.5
COc1ccc(C(c2nnnn2C2CCCCC2)N2CCN(C)CC2)c(OC)c1 (stereo not given)	-10	6	10	12	11	4307	5.9
COc1ccccc1C(=O)NN1C(=O)C2C3C=CC(O3)C2C1=O (stereo not given)	-9	4	0	13	8	3093	3.2
COc1ccccc1C1c2c(C)nn(-c3ccccc3)c2NC(=O)C1NC(=O)c1ccccc1 (stereo not given)	-4	2	2	6	4	2314	2.0
CC(C)NC(=O)CSc1c2c(nc3ccccc13)CCCC2	-13	17	7	-2	7	2618	1.2
CC(Oc1cccc(Cl)c1)C(=O)Nc1ccccc1N1CCCC1 (stereo not given)	14	-4	-6	-1	-1	4681	-1.1
Cc1cc(Br)ccc1OCCCCN1CCC(C)CC1	-5	1	1	·	·	2124	-3.4
COc1ccc(C=NNc2cn[nH]c(=O)c2Cl)cc1	·	2	·	11	7	·	9.2
COc1cc(Br)c(CC(=O)NC2CC2)cc1OC	-10	2	2	11	2	4105	3.2
COCCNc1nc(C)cc(-c2cc(C(=O)NCc3ccccc3)on2)n1	-7	5	5	3	-5	3001	3.0
Cc1cccc(NS(=O)(=O)c2c(C(=O)N3CCOCC3)c(C)n(C)c2C)c1C	3	-3	-11	7	9	5345	3.3
COc1ccc(NC(=O)Cc2nnc(N)s2)cc1	-26	3	-6	-9	1	4452	-0.3
Nc1nc(N)nc(-c2ccc(Cl)c(Cl)c2)n1	-50	-5	·	11	8	4226	2.0
C[C@@H]1COC(=O)[C@@H](CC(=O)OC(C)(C)C)C/C=C\C[C@@H](CC(=O)N(CCO)Cc2ccccc2)C(=O)N1	-25	0	·	-9	5	3674	-0.5
O=C(O)c1ccccc1C(=O)N1CCc2c([nH]c3ccccc23)C1C(F)(F)F (stereo not given)	·	-3	-1	9	1	·	35

Compound profiles, as listed above:
Listed for `CC(C)NC(=O)CSc1c2c(nc3ccccc13)CCCC2` → PrP 5UTR inh = -13; ugtP null kill = 17; BJeLR viability = 7; Mtb hypoxia rep = -2; Mtb hypoxia rep growth = 7; Bead autofluor = 2618; RN4220 kill = 1.2
Listed for `CCCCC(=O)NC(c1ccccc1Cl)c1ccc2cccnc2c1O` (stereo not given) → PrP 5UTR inh = 2; ugtP null kill = ·; BJeLR viability = 6; Mtb hypoxia rep = ·; Mtb hypoxia rep growth = ·; Bead autofluor = 4714; RN4220 kill = ·
Listed for `COc1ccc(C2CC(C(F)(F)F)n3nc(C(=O)NCc4c(C)nn(C)c4C)c(Cl)c3N2)cc1` (stereo not given) → PrP 5UTR inh = -14; ugtP null kill = 5; BJeLR viability = -4; Mtb hypoxia rep = 5; Mtb hypoxia rep growth = 8; Bead autofluor = 6610; RN4220 kill = 1.9

(further entries)
SMILES	PrP 5UTR inh	ugtP null kill	BJeLR viability	Mtb hypoxia rep	Mtb hypoxia rep growth	Bead autofluor	RN4220 kill
CCOC(=O)COc1ccccc1C=C1NC(=O)NC1=O	·	-5	·	8	14	·	4.6
COc1ccc(-n2nc3c(c2NC(=O)c2ccc(Br)o2)CS(=O)(=O)C3)cc1	0	2	8	3	2	4154	2.0
CCCCn1c(N)c(N(CCC(C)C)C(=O)c2[nH]c(C)c(C(=O)OCC)c2C)c(=O)[nH]c1=O	-12	-1	3	-5	8	?	0.4
CS(=O)(=O)Nc1ccc(C(=O)N2CCc3ccccc3C2)cc1	-18	5	-2	7	6	4744	5.8
CCN(c1ccccc1)S(=O)(=O)c1ccc(Cl)c(NC(=O)CSc2ncn[nH]2)c1	-31	0	-3	5	4	2630	9.1
COc1ccccc1C(=O)C1CCCN(C(=O)c2cnn(C(C)C)c2)C1 (stereo not given)	-39	5	-9	7	-4	4428	0.3
COc1ccc(CNc2cccc(C)n2)c(O)c1	-29	3	-3	-2	-4	4525	2.2
CCn1ncc(C(=O)Nc2ccc(S(=O)(=O)N3CCCC3)cc2)c1C	-22	7	4	12	12	2844	3.5
COc1cc2c(cc1OC)CN(C(C)C(=O)N1CCc3ccccc31)CC2 (stereo not given)	-5	-1	3	12	7	3152	-14
O=C(NN=Cc1ccc(-c2ccc([N+](=O)[O-])cc2)o1)c1ccc2c(c1)OCO2	·	-9	·	-6	-5	·	-2.8
COc1ccc(N2CCN(C(c3nnnn3C3CCCC3)C(C)C)CC2)cc1 (stereo not given)	-23	0	-5	10	4	3304	6.3
COc1ccc(NC(=O)c2nc3nccc(C)n3n2)cn1	-51	-4	-2	·	·	2131	3.3
COc1ccc2c(c1)c1nc3ccccc3nc1n2CC(=O)OC(C)C	-20	-3	-1	-1	7	7658	6.0
CCCC(=O)N(Cc1cc2ccccc2[nH]c1=O)c1ccccc1OC	-18	-10	-7	1	6	8992	-0.9
O=c1c([N+](=O)[O-])c(NC2CCCCC2)c2ccccc2n1-c1ccccc1	-1	-11	-6	-10	4	12719	-5.3
Fc1ccc(-c2nc(-c3cnccn3)no2)c(Cl)c1	-31	3	4	10	12	·	3.4
CCOc1ccccc1OCC(=O)Nc1cc2c(cc1C(=O)O)OCCCO2	-17	·	3	·	·	3823	·
COc1ccc(S(=O)(=O)N2CCN(C(=O)c3cnc(C)cn3)CC2)cc1	-19	5	0	11	11	2894	3.8
CCCC(C(=O)Nc1ccc(S(=O)(=O)N2CCOCC2)cc1)c1ccccc1 (stereo not given)	-1	7	·	-2	1	8638	-0.4
CCN(CC)S(=O)(=O)c1cccc(C(=O)N[C@H](C(=O)OCC(=O)NC(=O)NC)C(C)C)c1	-17	-5	1	·	·	4638	-3.0
Cc1ccc(Sc2ncnc3onc(C)c23)cc1	-24	9	-4	·	·	2389	-4.4
COc1ccc(-c2nc3ccccc3c(=O)n2CCN2CCOCC2)cc1	-12	7	-4	8	-2	4215	1.6
Cc1cc(C(F)(F)F)nn1CC(=O)NCC1CCCO1 (stereo not given)	·	10	-5	2	7	11411	4.4
COCCn1c(C)cc(O)c(C(=O)Nc2cccc(Cl)c2)c1=O	-20	-3	-5	-3	-6	4311	2.0
CCOC(=O)C1=NOC(Cn2cc(C(C)=O)c(=O)[nH]c2=O)C1 (stereo not given)	-5	7	2	9	3	4561	6.1
O=C(O)c1ccc(C=NNc2ccccn2)cc1	·	10	·	17	5	·	4.7
CCOc1ccc(-c2cnc3n2CCC3)cc1	1	-6	6	·	·	2592	1.5
O=C(O)c1cc(S(=O)(=O)Nc2ccccc2C(=O)O)ccc1O	-17	·	4	·	·	3407	·
O=C(Nc1ccn(Cc2ccccc2F)n1)c1ccc(COc2cccc(Br)c2)cc1	-91	3	0	·	·	3010	-8.4
Cc1ccc(Nc2nnns2)cc1C	-13	5	-1	10	8	7145	0.9
O=C1NC[C@H](c2ccccc2)N(CCC23CC4CC(CC(C4)C2)C3)C1=O	-19	·	-12	·	·	3018	·
S=C(NCc1cccnc1)Nc1ccc(Oc2ccccc2)cc1	-28	8	4	5	3	2974	8.1
COc1cc(NS(=O)(=O)c2ccc(NC(=O)NC3CCCCC3)cc2)nc(OC)n1	-30	10	5	7	12	8394	2.3
COc1ccc(CNS(=O)(=O)NCc2ccccc2)cc1OC	-21	3	4	14	3	2045	5.7
O=C(O)C1CCCN1C1=NS(=O)(=O)c2ccccc21 (stereo not given)	-10	-6	-12	11	-1	3449	1.7
Cc1onc(-c2c(Cl)cccc2Cl)c1C(=O)NC1CCCCC1	3	2	4	0	-5	2852	6.2
CCOc1ccc(/C(O)=C2/C(=O)C(=O)N(CCCN3CCOCC3)C2c2ccc(C)cc2)cc1C (stereo not given)	-25	5	11	-2	1	3845	4.2
CCOC(=O)CNNC(=O)Nc1ccc(Cl)c(Cl)c1	-16	-2	0	4	3	2112	2.6
CC1CN(C(C)CO)C(=O)c2cccc(NC(=O)Nc3ccc(C(F)(F)F)cc3)c2OC1CN(C)Cc1ccc(Cl)c(Cl)c1 (stereo not given)	·	-14	·	3	8	·	-3.8
Cc1ccccc1-c1nc(CN2CCC(C(=O)NCc3cccnc3)CC2)c(C)o1	-14	-5	-3	9	16	22517*	0.7
CN(C)CC(C)(C)CNC(=S)NCc1ccc2c(c1)OCO2	-12	·	0	·	·	1940	·
O=C(NCc1cccs1)Nc1cccc(Cl)c1	-52	-5	-9	·	·	2452	0.6
CC1(C)OC(=O)C(=CNC(Cc2c[nH]c3ccccc23)C(=O)O)C(=O)O1 (stereo not given)	-30	3	-3	12	-1	5144	10
COC(=O)C1=C(c2ccccc2OCc2ccccc2)CC2CCC1N2C(=O)NCc1ccc(OC)cc1 (stereo not given)	·	8	·	9	-1	·	-7.5
O=C(Nc1cc(S(=O)(=O)N2CCOCC2)ccc1N1CCCCC1)c1ccc(Cl)cc1	-18	0	·	0	7	9041	5.8
CCn1c(COc2ccc3c(c2)OCO3)nnc1SCC(=O)c1ccc(Cl)cc1	-45	11	0	·	·	4770	2.1
COc1cc(C2C3=C(CC(C)(C)CC3=O)Nc3ccccc3N2C(C)=O)cc(OC)c1OC (stereo not given)	-7	12	-5	-3	-2	2983	3.2
O=C(c1cccc(S(=O)(=O)N2CCOCC2)c1)N1CCN(S(=O)(=O)c2cccs2)CC1	-17	9	8	5	5	3814	2.1
COc1ccc(C(=O)Nn2c(SCc3cccc([N+](=O)[O-])c3)nc3ccccc3c2=O)cc1	37	1	5	11	3	7103	1.2
COCCN=C1Sc2nc3cc(C)c(C)cc3cc2CN1Cc1cccs1	-20	20	-3	5	9	3604	5.6
Cc1ccc(S(=O)(=O)NC(=O)Nc2ccc(N(C)C)cc2)cc1	-33	11	-14	12	-1	3498	4.2
CCOC(=O)CN(c1ccccc1)S(=O)(=O)c1ccc(F)cc1	-24	10	-1	2	12	2203	7.1
Brc1ccc(-c2ccc(C=NNc3nc4ccccc4[nH]3)o2)cc1	·	80	·	-7	-4	·	86*

Source: PubChem BioAssay (several laboratories)

No enrichment for hits (roughly 3.9% active in at least one column).
